PINK1 modulator: PINK1 expression modulation; PINK1 immunofluorescence, high-content cytometry, 24 h; Potency, µM (highest dose often 76.6 µM), inactives show at the highest dose activation (PINK1 increase), actives largely listed as activators; actives 0.2% (n = 410,000); AID 624263; active = well fitted activation curve with a large enough effect; inconclusive = small, poorly fitted or top-dose-only effect; inactive = flat fitted curve, though single readings scatter; cell line not stated here;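 note: potency is the fitted concentration of half-maximal effect; % of control where 0% means no effect; nearly all actives have a fitted effect of over 65% in size; a mitochondrial uncoupler was the plate control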
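Stable cell line, 250 cells/well, 12 h attachment; compounds pinned at 5 concentrations, 24 h; CCCP control. Fixed with nuclear dye, primary antibodies 12 h at 10 degrees C, secondary plus cell stain; laser-scanning cytometer read.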
D2 ag: agonists of human D2 dopamine receptor (beta-arrestin). actives 0.084% (n = 360,000). DiscoveRx PathHunter D2 beta-arrestin, luminescence, 90 min; 100% = 57 uM dopamine signal. activation, % (no concentration beside the values). P14416; in the data active = activation above about 40%; inconclusive = about 15% to 40%; inactive = below about 15%; note: compound concentration not given in the record; the text of the record calls up to 30% inactive
Target sequence (P14416 whole entry, looked up): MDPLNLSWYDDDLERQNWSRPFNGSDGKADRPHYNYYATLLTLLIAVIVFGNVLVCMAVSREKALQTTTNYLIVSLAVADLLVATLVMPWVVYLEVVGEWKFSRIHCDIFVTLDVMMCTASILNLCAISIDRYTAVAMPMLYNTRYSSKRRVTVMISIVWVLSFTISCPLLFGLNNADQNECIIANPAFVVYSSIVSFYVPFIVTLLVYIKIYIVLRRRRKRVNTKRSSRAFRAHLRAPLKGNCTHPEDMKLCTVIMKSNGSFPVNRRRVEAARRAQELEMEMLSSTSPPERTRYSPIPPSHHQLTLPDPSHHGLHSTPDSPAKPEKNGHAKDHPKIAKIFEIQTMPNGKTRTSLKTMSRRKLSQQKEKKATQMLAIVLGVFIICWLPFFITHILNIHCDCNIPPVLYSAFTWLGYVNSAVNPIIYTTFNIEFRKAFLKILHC
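Agonist mode: compounds alone added to overnight-plated D2 PathHunter cells for 90 min at 37 C, with 57 uM final dopamine (EC100) defining full response. Beta-arrestin recruitment detected by chemiluminescent reagent, read after 1 h at ambient temperature.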
CtBP-E1A inh: blocks the CtBP interaction with E1A. AlphaScreen GST-E1A/His-CtBP binding, 1536-well; active compounds read low; control for the full effect not named in the record. activity change, % (test concentration not listed). actives 0.49% (n = 340,000). AID 651724; in the data active means activity change below about -65%; inconclusive means about -30% to -65%; inactive means above about -30%; note: % is set by controls: 0 for no effect and ±100 for the full control effect
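Homogeneous bead-based format: GST-tagged E1A captured on glutathione donor beads, His-tagged CtBP on nickel acceptor beads; compounds precede bead addition by 2 h at 37 °C.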
D2 PAM: positive allosteric modulators of human D2 dopamine receptor. potentiation, % (test concentration not listed). P14416. actives 0.23% (n = 360,000). DiscoveRx D2 beta-arrestin cells, luminescence, 90 min; 100% = 57 uM dopamine signal. AID 624464; active = potentiation of 50% or more; inconclusive = 30% to 50%; inactive = 30% or less;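 note: compound concentration not given in the record; tested on top of an EC20 dose of dopamine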
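PathHunter D2 cells, attached overnight at 37 deg C, received compound in DMSO plus dopamine at EC20 (50 nM final) for 90 min at 37 deg C. Beta-arrestin recruitment was read as luminescence after 1 h with detection reagent at ambient temperature.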
Six1-Eya2 inh: Six1/Eya2 interaction inhibition. Q15475+O00167. AlphaScreen GST-Six1/His-Eya2 binding, biochemical; active compounds read low; control for the full effect not named in the record. activity change, % (no concentration beside the values). actives 0.56% (n = 360,000). AID 651725; in the data active = activity change below about -65%; inconclusive = about -30% to -65%; inactive = above about -30%; note: % is set by controls: 0 for no effect and ±100 for the full control effect
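GST-Six1 + His-Eya2 (5X stock: 250/500 nM); Tris pH 8.0, 300 mM NaCl, 0.05% BSA, 0.02% Tween 20; GSH donor/Ni acceptor beads; 1 h 37 °C dark; AlphaScreen readout.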
TRPML1 ag: human mucolipin-1 channel agonism; TRPML1-expressing cells, Ca2+ dye fluorescence, FDSS; host cell line not named in the record; reference of the full effect not given here; activation, % (test concentration not listed); actives 0.12% (n = 410,000); AID 624414; in the data active = activation above about 50%; inconclusive = about 30% to 50%; inactive = below about 30%; note: 0% is about no effect; the text of the record puts the active cut at 80%
Target sequence (Q9GZU1 whole entry, looked up): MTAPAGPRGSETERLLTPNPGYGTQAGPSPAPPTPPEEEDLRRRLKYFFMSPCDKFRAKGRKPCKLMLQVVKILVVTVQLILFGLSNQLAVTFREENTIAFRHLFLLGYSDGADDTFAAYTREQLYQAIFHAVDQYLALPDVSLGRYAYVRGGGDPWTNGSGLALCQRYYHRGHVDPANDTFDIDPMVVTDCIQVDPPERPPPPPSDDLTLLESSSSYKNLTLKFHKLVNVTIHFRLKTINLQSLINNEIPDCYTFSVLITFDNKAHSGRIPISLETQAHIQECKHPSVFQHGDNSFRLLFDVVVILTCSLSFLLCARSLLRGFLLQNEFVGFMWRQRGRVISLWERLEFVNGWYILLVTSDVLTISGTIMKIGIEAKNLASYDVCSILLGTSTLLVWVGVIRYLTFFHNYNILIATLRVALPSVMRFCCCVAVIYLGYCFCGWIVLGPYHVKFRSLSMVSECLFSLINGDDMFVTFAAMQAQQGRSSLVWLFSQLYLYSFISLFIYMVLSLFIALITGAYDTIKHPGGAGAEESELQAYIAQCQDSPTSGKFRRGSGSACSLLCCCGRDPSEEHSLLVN
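Cells: TRPML1-DL, 1X Tet inducer, ~16 h at 37 degrees C/5% CO2. Dye: ABD Ca8 no-wash + quencher, 45-90 min RT. Read: 10 s baseline, compound add, 110 s agonist phase; 54-4 EC80 (4uM final), 110 s antagonist phase.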
* marks the source's active call; other numbers are inactive results; ? = inconclusive; / = not tested or not shown; & = joins results of further samples; [ ] = dose if it differs, or a comment.

SMILES	PINK1 modulator	D2 ag	CtBP-E1A inh	D2 PAM	Six1-Eya2 inh	TRPML1 ag
CCOC(=O)N1CCC(N2CCCC(C(=O)c3cc(F)ccc3OC)C2)CC1 (stereo not given)	-1.0%	-4.8	0	-16	-15	-0.2
CCOC(=O)CNC(=O)N1CCCC(CNS(=O)(=O)c2cccs2)C1 (stereo not given)	1.6%	-4.5	0	-9	-3	-0.3
Cc1cccc(OCC(=O)OCC(=O)c2c(N)n(C)c(=O)n(C)c2=O)c1C	-3.2%	-2.2	4	-3	0	-0.6
CCOc1ccc(-n2c(SCC(=O)Nc3nccs3)nc3c(c2=O)SCC3)cc1	3.4%	2.4	12	0	2	-0.2
Cc1csc(N2C(=O)C3C4CCC(O4)C3C2=O)n1 (stereo not given)	1.1%	-1.2	-2	11	-1	0.1
COc1ccc(N(C)C(=O)CC2(CC(=O)O)CCCCC2)cc1	3.3%	1.0	9	24	5	-0.9
CCn1c(SC2CCOC2=O)nnc1-c1ccc(Cl)cc1 (stereo not given)	-0.4%	-6.4	/	-4	0	0.1
CCC(=O)NC(C)C(c1cccs1)N1CCOCC1 (stereo not given)	0.3%[38.3 µM]	-5.3	-1	-5	2	-0.3
CCC(C)NCCOc1ccc(C)cc1[N+](=O)[O-] (stereo not given)	1.2%	-4.5	-1	-21	-4	-0.3
COCCCN=C1NN=C(c2cc(C)n(-c3ccccc3)c2C)CS1	0.4%	2.9	-1	-6	-8	0.0
CNc1cc(-c2ccc(O)cc2C)ncn1	0.4%	-2.5	7	-8	7	-0.5
CN1CCN(S(=O)(=O)c2ccc(NC(=O)c3cccc(S(=O)(=O)N4CCCC4)c3)cc2)CC1	-0.8%	-1.1	-2	-10	-3	0.1
O=C(Cc1c(C(=O)O)[nH]c2ccccc12)Nc1ccc2c(c1)OCO2	-0.5%	-1.0	-4	-10	0	-1.1
CCSCCOC(=O)C1=C(C)N(C)C(=O)NC1c1ccc2c(c1)OCO2 (stereo not given)	3.8%	-2.8	-11	1	-3	1.0
O=C(O)/C=C/c1ccc2ccccc2n1	/	-2.7	8	9	0	0.0

Three compounds already listed, arranged by the value under D2 ag, highest first.
molecule	D2 ag
COCCCN=C1NN=C(c2cc(C)n(-c3ccccc3)c2C)CS1	2.9
CCOc1ccc(-n2c(SCC(=O)Nc3nccs3)nc3c(c2=O)SCC3)cc1	2.4
COc1ccc(N(C)C(=O)CC2(CC(=O)O)CCCCC2)cc1	1.0

The list continues:
SMILES	PINK1 modulator	D2 ag	CtBP-E1A inh	D2 PAM	Six1-Eya2 inh	TRPML1 ag
Cc1ccc(N(CC(=O)NCCc2ccccc2)S(=O)(=O)c2c(C)noc2C)cc1	1.3%[38.3 µM]	4.1	2	-8	2	0.1
COc1ccc2nc(N=NC3=C(O)CC(C)(C)CC3=O)sc2c1	-1.5%	-1.2	-10	-6	-15	3.6
O=C(Cc1ccc(OCc2ccccc2)cc1)NCc1ccc2c(c1)OCO2	5.4%	-3.2	9	-3	1	-0.3
COC(=O)c1c(-n2cnnn2)sc(C)c1C	4.9%[38.3 µM]	-1.3	-1	1	1	0.3
COc1ccccc1N(CC(=O)NCCSCc1ccccc1Cl)S(C)(=O)=O	-0.5%&1.2%	3.2	1	-7	-1	0.0&-0.7
O=C(CCc1nnc(COc2ccccc2)o1)NCc1ccccc1C(F)(F)F	-0.6%	-2.0	-1	-7	3	0.1
O=C(Cn1nnc(-c2ccc(Cl)cc2)n1)NC1CCN(Cc2ccccc2)CC1	-0.2%	-4.6	5	-21	4	0.8
CCOc1ccccc1NC(=O)C(=O)N/N=C/c1cc(Br)ccc1O	4.7%	-3.1	?	-2	-14	1.0
CC(C)(C)C(=O)NN=C1CCC(c2ccccc2)CC1 (stereo not given)	0.7%	-4.0	33	-3	0	0.0
CCOC(=O)c1cnc(N)nc1C(F)(F)F	-1.4%	-1.3	16	-4	-11	-0.3
CCOc1cc(N2CCOCC2)c(OCC)cc1NC(=O)c1[nH]c(C)c(C(C)=O)c1C	8.1%	-3.2	/	0	-6	-0.9
O=C(CNC(=O)c1ccccc1O)N/N=C/c1ccccn1	-2.3%	-4.6	-11	-11	-10	-0.2
O=P(COCCOCP(=O)(c1ccccc1)c1ccccc1)(c1ccccc1)c1ccccc1	-1.2%	0.7	-3	-2	14	0.6
O=C(CSCc1c(Cl)cccc1Cl)NCc1ccco1	2.7%	-5.4	-5	-12	-13	-1.0
COC(=O)c1c(NC(=O)CN2C(=O)NC3(CCCCC3C)C2=O)sc2c1CCC2 (stereo not given)	0.1%	0.6	-8	-2	-2	0.1

Two compounds picked at random from the list so far, as already listed:
SMILES	PINK1 modulator	D2 ag	CtBP-E1A inh	D2 PAM	Six1-Eya2 inh	TRPML1 ag
CCOc1ccccc1NC(=O)C(=O)N/N=C/c1cc(Br)ccc1O	4.7%	-3.1	?	-2	-14	1.0
COC(=O)c1c(NC(=O)CN2C(=O)NC3(CCCCC3C)C2=O)sc2c1CCC2 (stereo not given)	0.1%	0.6	-8	-2	-2	0.1

Continuation:
SMILES	PINK1 modulator	D2 ag	CtBP-E1A inh	D2 PAM	Six1-Eya2 inh	TRPML1 ag
O=C(C[n+]1cc(-c2ccc(Cl)cc2)n2c1CCCCC2)c1ccccc1	0.2%	-2.0	4	-34	3	0.3
CCOC(=O)C1=C(C)Nc2ccccc2N/C1=N\S(=O)(=O)c1ccc(Cl)cc1	2.0%	1.6	-3	2	6	1.6
COc1ccc(NC(=O)C2CC(c3c(F)cccc3Cl)=NO2)cc1 (stereo not given)	4.1%	-5.9	-2	-3	0	1.3
Cc1c(NC(=O)CSc2n[nH]c(-c3ccccc3)n2)c(=O)n(-c2ccccc2)n1C	-1.0%[38.3 µM]	-1.6	6	-10	-1	0.5
O=C(c1ccco1)N(Cc1ccccc1)c1cccc([N+](=O)[O-])c1	-0.5%	0.0	4	-16	-11	3.1
CCC(Sc1nc(-c2ccccc2)c(C#N)c(=O)[nH]1)C(=O)Nc1nnc(C)s1 (stereo not given)	-1.0%	-1.6	-5	-4	0	-0.3
Cc1cccc(C2c3[nH]c4ccccc4c3CCN2C(=O)c2noc3c2CCCC3)n1 (stereo not given)	1.1%	-1.2	0	-2	-21	1.5
O=C(O)C1CCCCC1C(=O)NCCCn1ccnc1 (stereo not given)	-2.1%[38.3 µM]	0.0	0	-1	3	0.8
Cc1c(-n2cc(C(=O)c3cc(F)ccc3O)cc(C#N)c2=O)c(=O)n(-c2ccccc2)n1C	0.7%	-3.5	1	1	0	7.8
COC(=O)C1=C(N)Oc2cc(C)n(CCCn3ccnc3)c(=O)c2C1c1cccc(Cl)c1 (stereo not given)	-0.6%	-0.2	-3	7	-1	0.8
O=C(NCCOc1ccc(Cl)cc1)C(=O)NCC1CCCO1 (stereo not given)	2.6%	-2.5	1	-15	3	-0.5
CCN(CC)S(=O)(=O)c1ccc(Cl)c(NC(=O)COC(=O)c2c(C)noc2C)c1	2.0%	5.2	4	6	1	-0.5
CCOc1ccc(C(CC(=O)O)NC(=O)COc2ccc3ccccc3c2)cc1OC (stereo not given)	2.5%	-1.9	7	-5	14	/
CC(C)C(NC(=O)c1ccccc1)C(=O)NC1=NCCS1 (stereo not given)	1.9%[38.3 µM]	0.5	12	-2	4	0.2
Cc1ccc2c(CN3CCN(Cc4ccccc4)CC3)cc(=O)oc2c1C	-0.7%	-1.2	-11	-22	-4	-0.4
CC(C)(C)NS(=O)(=O)c1ccc(NS(=O)(=O)c2ccc(F)cc2)cc1	-1.8%	-4.2	4	4	7	1.0
COc1ccc(NC(=O)CN(C)C(=O)c2cn(-c3ccccc3)nc2-c2ccc(OC)cc2)cc1	2.6%	-1.9	/	-22	1	0.5
CCOC(=O)C1CCN(C(=O)C2(NC(=O)Nc3ccccc3C)CCCCC2)CC1	-0.1%	0.6	5	-3	19	-0.1
Cc1cccc(OCC(=O)Nc2ccc(N3CCN(S(C)(=O)=O)CC3)cc2)c1	0.1%	0.5	9	3	7	-0.4
COC(=O)c1cn(NC(=O)/C=C/c2cc(OC)ccc2OC)c(=O)c2ccccc12	-1.2%	-4.1	-1	-21	-1	-0.9
CCCCN(C(=O)CSc1nnnn1C)c1c(N)n(Cc2ccccc2)c(=O)[nH]c1=O	1.5%	-3.8	1	-3	0	1.2
O=C(COc1ccccc1)Nc1ccc(N2CCCCC2)cc1	12%	-0.2	-17	-1	-16	-0.8
O=C(NCC12CC3CC(CC(C3)C1)C2)c1nn2cccnc2c1Cl	-5.3%[38.3 µM]	1.7	-6	1	1	-0.1
COc1cccc(-c2cnc(C(O)c3ccc(F)c(C)c3)[nH]2)c1 (stereo not given)	1.8%	-3.1	-10	-17	-11	-0.3
O=Cc1cc(N=Nc2ccccc2Cl)ccc1O	?	-11	1	-25	-17	2.9
Cc1ccc(NC(=O)c2cc(-c3ccc(C)o3)nc3ccccc23)nc1	-0.7%[38.3 µM]	-3.4	3	-14	-4	0.5
CCCCn1c(SCC(=O)c2ccc(OC)c(OC)c2)nc2cc(S(N)(=O)=O)ccc21	-3.1%	-1.3	-6	2	-7	0.0
O=[N+]([O-])/C=C1\CCCCCN1	4.6%	-3.4	/	-18	3	-0.6
CC(C)c1ccc(CNc2cc(N3CCCC3)ccc2[N+](=O)[O-])cc1	/	-4.9	2	-5	?	0.9
O=C1CN(C(=O)COC(=O)CNC(=O)c2ccc(Cl)cc2)c2ccccc2N1	-0.1%	-1.8	-4	-5	-3	1.1

Limited to Six1-Eya2 inh (three entries from above):
compound | Six1-Eya2 inh
COc1cccc(-c2cnc(C(O)c3ccc(F)c(C)c3)[nH]2)c1 (stereo not given) | -11
O=Cc1cc(N=Nc2ccccc2Cl)ccc1O | -17
Cc1ccc(NC(=O)c2cc(-c3ccc(C)o3)nc3ccccc23)nc1 | -4

(continued)
SMILES	PINK1 modulator	D2 ag	CtBP-E1A inh	D2 PAM	Six1-Eya2 inh	TRPML1 ag
O=C(/C=C/c1ccccc1Cl)Nc1cccc(S(=O)(=O)NC2=NCCCCC2)c1	-1.5%	-3.3	-11	-1	?	-0.1
Fc1ccc2nc(Nc3nc4c(F)cccc4s3)sc2c1	?	2.1	-2	-5	7	1.9
O=C(Nc1ccc(F)cc1F)c1cncc(Br)c1	-0.8%	-3.6	6	-6	4	-0.5
CCCc1cc(C(=O)N/N=C/c2ccc(CC)s2)c2ccccc2n1	1.4%	-2.5	13	-12	11	2.5
CCCn1c(SC(C)C(=O)N2CCOCC2)nc2ccc(Br)cc2c1=O (stereo not given)	4.3%	-0.5	-6	10	4	-0.1
Cc1c(C(=O)Nc2ccccc2F)sc2nc3n(c(=O)c12)CCC3	-0.1%&0.0%	-6.1	-7	-2	-3	0.8&-0.5
Cc1cc(C)cc(C(=O)NCC(=O)N(C)CCOc2ccccc2)c1	-1.0%	-2.0	0	-1	3	0.5
c1ccc2[nH]c(Cn3nnc4ccccc43)nc2c1	-0.1%	-5.8	-2	-8	5	-0.1
CC(=O)Nc1ccc(S(=O)(=O)NC(CC(=O)NC2CCCCC2C)C(C)C)cc1 (stereo not given)	1.0%	1.7	3	-13	2	-0.5
Cc1ccc(CN2CCN(Cc3cccc(C)n3)CC2CCO)cc1 (stereo not given)	0.7%	-6.3	0	-11	11	-0.6
COc1cc(Cn2c(C(=O)O)cc3sccc32)cc(OC)c1OC	-1.2%	-3.8	2	-11	3	0.1
Cc1ccc(-c2nnc(COC(=O)c3ccco3)o2)cc1	-1.6%	-15	8	-14	13	0.1
